Tg IFNy HTS: T. gondii growth inhibition with IFN-gamma, primary screen, cell-based. Toxoplasma gondii growth in IFN-gamma-treated host cells; active compounds read low; reference of the scale not given here. AID 1259416, 2018. activity change, negative = inhibition, %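 (about 20 µM by stock and volumes)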. hit rate 3.8% among 69,000;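 active = below -70%; inconclusive = fit judged invalid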;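 note: host cells are HeLa cells infected with Toxoplasma gondii; parasite growth read as luciferase light; one replicate is shown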
Active calls of the source: *; i = inactive; ? = inconclusive.

SMILES	Tg IFNy HTS
O=S(=O)(Cc1ccc(Cl)cc1)c1ccc(NCCc2c[nH]c3ccccc23)nn1	10
N#Cc1ccc(-c2ccc([C@@H]3[C@@H](CO)N4C(=O)CNC[C@@H]34)cc2)cc1	-12
Cc1ccc(Nc2nc(N)nc(CSc3nc4ccccc4s3)n2)cc1	-64
Cc1ccc(CSC2=Nc3ccccc3C3=NC(CC(=O)NCc4ccc5c(c4)OCO5)C(=O)N23)cc1 (stereo unspecified)	5
COc1cc(/C=C/C(N)=O)cc(OC)c1OC	11
Cc1ccc(NC(=O)C(=O)NCCc2sc(-c3ccc(F)cc3)nc2C)cc1C	-36
CCN(CC)S(=O)(=O)c1ccc2c(c1)N(Cc1nc(-c3ccccc3C)oc1C)C(=O)CS2	-78*
CCC(CC)n1nc(C)cc1NC(=O)c1cccc2c1OCCO2	87
CC(C)CN1CC2CN(S(=O)(=O)c3ccccc3)CC2C1 (stereo unspecified)	323
CCc1ccc(NC(=O)N2CCc3nc(-c4ccc(OC)c(OC)c4)sc3C2)cc1	-79*
CCn1nc(C(C)C)cc1C(=O)N1CCO[C@@H]2CCCC[C@H]21	6
O=C(NCc1ccc(-c2ccc(F)cc2F)o1)Nc1ccc(Cl)cc1	-69
Cc1ccc(C)c(-c2coc(-c3ccc(NC(=O)Nc4cccc(F)c4)cc3)n2)c1	-36
O=C(C1CC=CC1)N1CC[C@H](O)[C@@H]1Cc1ccncc1	-37
COCCc1ncc(CN2CCCN(c3ccc(F)cc3)CC2)cn1	0
Cc1cc(F)ccc1NC(=O)c1c(O)c2ccccc2[nH]c1=O	46
c1ccc(C2CCCN2Cc2ccc(-n3cncn3)cc2)nc1 (stereo unspecified)	8
CCCCc1ncc(-c2nccn2CCN(C)C)[nH]1	-43
CC(c1ccon1)N(C)C(=O)c1cccc2ccnn12 (stereo unspecified)	38
Cc1cc(=O)[nH]c(SCC(=O)Nc2ccc(N3CCOCC3)c(Cl)c2)n1	25
COc1cccc([C@H]2CN(C(=O)c3ccccc3)[C@@H]3CCN(C(=O)c4cnccn4)C[C@H]23)c1	-56
Cc1noc(C)c1S(=O)(=O)N(C)C[C@H]1OCCCC[C@@H](C)Oc2ccc(NS(=O)(=O)c3cn(C)cn3)cc2C(=O)N([C@@H](C)CO)C[C@@H]1C	36
Cc1ccc(NC(=S)NC(=O)c2ccccc2)cc1NS(C)(=O)=O	223
c1coc(CN2C[C@H](OCC3CCOCC3)[C@@H]3COC[C@@H]32)c1	-1
COc1ccc2c3c(n(C)c2c1)[C@H](CO)N(C(=O)C1CC1)CC31CCN(Cc2cccc(F)c2)CC1	-23
Next section
SMILES	Tg IFNy HTS
CCC(CO)N(Cc1ccc(C)s1)C(=O)c1occc1C (stereo unspecified)	2
CC(C)c1noc(N2CCC(COc3ccc(-c4ccc(S(C)(=O)=O)cc4)nc3)CC2)n1	-51
COc1ccc2c3c([nH]c2c1)[C@@H](CO)N(C(=O)Cc1ccccc1)CC31CCN(C)CC1	22
CCCC(=O)N1CCc2c([nH]c3ccccc23)C12C(=O)N(C)c1ccccc12 (stereo unspecified)	455
Cc1cnc(N2CCC3(CCN(CC4CC4)C3=O)CC2)nc1	-48
Cc1cc(F)ccc1C(=O)N(CCN(C)C)Cc1ccsc1	37
CCOc1ccccc1-c1nc(CN(c2ccc(C)cc2)S(=O)(=O)c2cccs2)c(C)o1	-53
Cc1ccc(OCc2occc2C(=O)N2CCC(O)(CN(C)C)C2)cc1 (stereo unspecified)	-45
CN1C(=O)c2cc(NC(=O)C3CCOCC3)ccc2OC[C@@H]2O[C@H](CC(=O)NCc3ccccc3F)CC[C@@H]21	4
COc1ccc2c(c1)c1c3n2CCN(C)C3=NCC1	20
CNC(=O)c1ccc(-c2nc(CN3CCN(S(=O)(=O)c4ccccc4)CC3)c(C)o2)cc1	11
COc1ccc(Cl)cc1CN(C)C(=O)c1cccc(NCC(=O)O)c1	-4
COc1cccc(C(=O)N2CCN(Cc3nc4ccccc4nc3C)CC2)c1	2
Cc1n[nH]c(C)c1CCNC(=O)C1CNCCO1 (stereo unspecified)	23
CCc1cn[nH]c1C1CCN(CC2CCOC(C)(C)C2)CC1 (stereo unspecified)	5
CC1CCN(S(=O)(=O)c2ccc3c(ccc(=O)n3CC(=O)NCc3ccco3)c2)CC1	-32
Cc1cccc(-n2cccc2CN2CCOC(CN)C2)c1 (stereo unspecified)	0
COc1ccc(-c2cc(C(=O)Nc3ccc4c(c3)CCC(=O)N4)c3ccccc3n2)cc1	15
Cc1nc(C(C)C)cc(N2CCC(Cn3ccnc3)CC2)n1	-9
Cc1ccc(C)c(OCC(=O)NCc2noc(Cc3cccs3)n2)c1C	2
Cc1cc(C)n(CCC2CC(=O)Nc3n[nH]c(-c4ccccc4)c32)n1 (stereo unspecified)	-9
Fc1ccc(CC2CNCCOC2)cc1 (stereo unspecified)	-11
COC(=O)c1ccc(NC(=O)COc2nc(C)nc3ccccc23)cc1	8
c1ccc(-c2ncn(CCc3nc4c(s3)CCC4)c2C2CCOC2)cc1 (stereo unspecified)	-8
O=C(NCc1cccs1)C1CCCN(S(=O)(=O)c2ccc3c(c2)OCO3)C1 (stereo unspecified)	35
The list goes on.
SMILES	Tg IFNy HTS
CC(C)C(NC(=O)c1cccnc1N1CCOCC1)c1nnc2n1CCNCC2 (stereo unspecified)	1
COc1ccc(NS(=O)(=O)c2sc(Cl)cc2Br)c(OC)n1	-10
COc1cc(-c2nc(Nc3ccc(C)cc3)c3ccccc3n2)cc(OC)c1OC	-93*
Cc1nc(-c2cccnc2)ncc1C(=O)N1CCN2CCNC(=O)C2C1 (stereo unspecified)	-1
Cc1ccc(SCCC(=O)c2ccc(Cl)cc2)cc1	-10
O=C(c1cc2c(c(-c3cccc(Br)c3)n1)[C@H](CCO)NC2)N1CCCCC1	-34
c1ccc(Cn2cc(-c3cccc(CN4CCOCC4)c3)cn2)cc1	-7
COc1ccc(C2=COC3(CCN(C(=O)c4cccc(-n5c(C)ccc5C)c4)CC3)C2)cc1	5
CN(C)c1c(F)cc(C(=O)NCc2ccccc2)cc1F	37
Cc1nnc(Sc2c(N)n(C)c(=O)[nH]c2=O)s1	3
Cc1ccccc1-c1nc(Cn2ccn3nc(-c4cccs4)cc3c2=O)c(C)o1	119
CO[C@@H]1CN(C)C(=O)c2cc(NC(=O)C3CC3)ccc2OC[C@@H](C)N(Cc2cc(F)ccc2F)C[C@H]1C	?
COc1cccc(C2(NC(=O)c3cnn4c(C)cc(C)nc34)CCCC2)c1	-7
O=C(CSc1ncc(-c2ccc(Cl)cc2)n1CCC1=CCCCC1)N1CCCC1	-55
COc1ccccc1-c1ccc(N2CCC(O)(c3cccnc3)CC2)nn1	24
COc1ccc2[nH]cc(CCNC(=O)C3CCc4nc(N5CCCC5)ncc4C3)c2c1 (stereo unspecified)	-47
FC(F)(F)c1cccc(CC2CN(Cc3nccs3)CCO2)c1 (stereo unspecified)	-48
Cn1ccnc1-c1nccn1Cc1ccc(CN2CCCC2)cc1	12
CC(C)CCN1[C@@H]2CCN(C(=O)c3cccn3C)CC[C@@H]2Oc2ccccc2S1(=O)=O	-64
CCOC(=O)CC1C(=O)NC2CCCCC2N1C(=O)Nc1ccc(Cl)cc1 (stereo unspecified)	85
Cc1cccc(CN2C[C@H]3COC[C@@]3(COCc3csc(C)n3)C2)n1	-58
Cc1ccc(N(c2ccc(C)cc2)c2cccnc2)cc1	15
Cc1nc(-c2cccc(F)c2)sc1CCNC(=O)C(=O)Nc1ccccc1	41
COCCC(=O)Nc1ccc(-c2nc(Cn3nc(C)cc3C)c(C)o2)cc1	82
CCOc1ccccc1CN1CCC2(CC1)C(=O)N(Cc1ccccn1)C(=O)N2Cc1ccccc1	-15

6 compounds picked at random from those above:
SMILES	Tg IFNy HTS
CN(C)c1c(F)cc(C(=O)NCc2ccccc2)cc1F	37
Cc1nc(-c2cccnc2)ncc1C(=O)N1CCN2CCNC(=O)C2C1 (stereo unspecified)	-1
COc1ccc2[nH]cc(CCNC(=O)C3CCc4nc(N5CCCC5)ncc4C3)c2c1 (stereo unspecified)	-47
Cc1ccc(N(c2ccc(C)cc2)c2cccnc2)cc1	15
COc1cccc(C2(NC(=O)c3cnn4c(C)cc(C)nc34)CCCC2)c1	-7
FC(F)(F)c1cccc(CC2CN(Cc3nccs3)CCO2)c1 (stereo unspecified)	-48

(cont.)
SMILES	Tg IFNy HTS
COc1ccccc1C(NC(=O)C(OC)c1ccccc1)c1nccn1C (stereo unspecified)	13
Cc1ccc(CN2CCC3(CC2)C(=O)N(C(C)C)C(=O)N3CCC(C)C)c(C)c1	-42
CNC[C@@H]1OCc2cn(nn2)CCCC(=O)N([C@@H](C)CO)C[C@@H]1C	125
O=C(NCc1cccc(O)c1)Nc1nc(-c2ccncc2)cs1	-74*
O=C(NCc1ccccc1)c1ccc(S(=O)(=O)c2ccc(Oc3ccccc3)cc2)cc1	-50
Cc1ccc(S(=O)(=O)Nc2ccc(NC(=O)CN3CCCCC3)c(Cl)c2)cc1	-39
Cc1cccc(-c2nc(Cn3nnc(-c4nc(-c5ccc(OC(C)C)cc5)no4)c3C)c(C)o2)c1	-52
COC(=O)c1c(C)oc(C)c1S(=O)(=O)NCc1ccc(OC)cc1	96
O=C1N(c2ccccc2)C(=O)N(c2ccccc2)C2c3ccccc3C=CN12 (stereo unspecified)	3
COc1ccccc1NC(=O)N1C[C@@H]2[C@H](c3ccccc31)[C@@H](CO)N2CC1CCOCC1	1
Cc1oc(-c2cccc(Cl)c2)nc1Cn1nnc(-c2nc(-c3cccc(F)c3)no2)c1C	-25
O=S(=O)(Cc1c(Cl)cccc1Cl)c1ccc(C(F)(F)F)cn1	8
CN(C)C(=O)c1cccc(-c2ccccc2[C@@H]2[C@@H](C#N)N(C(=O)C3CCCCC3)[C@@H]2CO)c1	-52
COc1nc2ccccc2cc1-c1cnccc1C	-7
O=S(=O)(NCCc1csc(-c2ccc(F)cc2)n1)c1ccc(Br)cc1	-24
CC(C)COC(=O)N(C)C[C@H]1OCc2ccccc2-c2ccccc2C(=O)N([C@H](C)CO)C[C@@H]1C	-40
COc1ccc(S(=O)(=O)N(C)CC(=O)O)cc1OC	-16
O=C(CNC(=O)c1ccco1)Nc1cccc(-c2csc(-c3ccccc3)n2)c1	-24
CN(CCc1ccccn1)c1ncccc1CNc1ncccc1C(F)(F)F	-4
CC(C)(C)c1cc(C(C)(C)C)n(-c2ccc(N3CC(C(=O)O)CC3=O)cc2)n1 (stereo unspecified)	-26
Cc1ccc(CSC2=Nc3ccccc3C3=NC(CCC(=O)NCc4cccs4)C(=O)N23)cc1 (stereo unspecified)	-8
CS(=O)(=O)N1CCc2ccc(C(=O)NCCN3CCC(N4CCCCC4)CC3)cc21	21
N#Cc1cccc(C(=O)N2Cc3nccn3CC(Cn3cccn3)C2)c1 (stereo unspecified)	-65
CCOc1cccc(C2c3[nH]c4ccccc4c3CCN2C(=O)C2CC2)c1 (stereo unspecified)	i
CCN(CCCNC(=O)CCC1Nc2c3ccccc3nc(=S)n2C1=O)c1cccc(C)c1 (stereo unspecified)	17
(cont.)
SMILES	Tg IFNy HTS
CO[C@@H]1CN(C)C(=O)c2ccc(NC(=O)Nc3c(C)noc3C)cc2OC[C@H](C)N(CCC(F)(F)F)C[C@H]1C	149
CNc1ncc(CN(C)C(=O)c2csc(C)n2)cn1	-51
CCOC(=O)c1cc(C(=O)OCC)c(C)nc1C	-4
CCn1c(CC2CCN(C(=O)C[C@@H]3C[C@@H]4C=C[C@H]3C4)CC2)nn(C)c1=O	1
O=C(O)c1ncc(C(F)(F)F)cc1Cl	-11
O=C(Nc1ccc(F)cc1)N1CCn2nnc(COc3cccnc3)c2C1	13
CCC(=O)NCc1ccccc1-c1ccc(F)cc1OC	38
O=C(O)c1ccc(N2C(=O)/C(=C/c3ccc(-c4ccc([N+](=O)[O-])cc4)o3)C=C2c2ccccc2)cc1	-7
Cc1c(C(=O)N2CC(C)CC(C)C2)oc2ccc3c(c12)C(=O)CC1(CCCCCC1)O3 (stereo unspecified)	-99*
COC(=O)CCC(=O)N1CCC2(CC1)CC[C@@]1(C(=O)N3CCCC3)CN(C)C[C@H]21	-2
O=C(NC1CCCC1)C1CN(C(=O)CCN2CCc3ccccc32)CCO1 (stereo unspecified)	-42
C=CCN1C(=O)CCC12CCCN(C(=O)c1ccsc1)CC2 (stereo unspecified)	13
c1ccc(-c2nc3c(c(N4CCOCC4)n2)C2(CCCCC2)Cc2ccccc2-3)cc1	2
Cn1cnc(S(=O)(=O)N2C[C@H](O)COC[C@H]3O[C@H](CC(=O)NCc4cccc(F)c4)CC[C@@H]32)c1	9
COc1ccc(CCNc2cc(C)nc3ncnn23)cc1OC	-10
C1=C(CCNc2nc(-c3nnc(-c4ccccc4)o3)nc3ccccc23)CCCC1	-99*
Cc1cnc(CNC(=O)c2oc(COc3ccccc3)cc2C)cn1	7
CCC(=O)N1CC2(C1)[C@@H](c1ccc(-c3ccc(F)cc3)cc1)[C@@H](CO)N2C(C)=O	-10
CCOc1ccc(CNC(=O)Cn2ncc3c(N4CCC(C)CC4)ncnc32)cc1OCC	189
Cc1cc(NC(=O)C2CCCC2)n(-c2ncnc3c2cnn3-c2ccc(F)cc2)n1	37
CN1C(=O)c2cc(NC(=O)c3cccc(C(F)(F)F)c3)ccc2OC[C@H]2O[C@H](CC(=O)NCCN3CCCC3)CC[C@@H]21	10

Exported comma-delimited: entries from further up
compound,Tg IFNy HTS
Cc1c(C(=O)N2CC(C)CC(C)C2)oc2ccc3c(c12)C(=O)CC1(CCCCCC1)O3 (stereo unspecified),-99*
COC(=O)CCC(=O)N1CCC2(CC1)CC[C@@]1(C(=O)N3CCCC3)CN(C)C[C@H]21,-2

Gathered by group, the compounds so far containing a cyano group.
SMILES	Tg IFNy HTS
N#Cc1ccc(-c2ccc([C@@H]3[C@@H](CO)N4C(=O)CNC[C@@H]34)cc2)cc1	-12
CN(C)C(=O)c1cccc(-c2ccccc2[C@@H]2[C@@H](C#N)N(C(=O)C3CCCCC3)[C@@H]2CO)c1	-52
N#Cc1cccc(C(=O)N2Cc3nccn3CC(Cn3cccn3)C2)c1 (stereo unspecified)	-65

Screening results from PubChem BioAssay.

These rows are one share of the data; the hit share may differ from the screen's.
